ID4 SMM: binders of human ID4 protein; 31,000 tested, 1.2% active; small molecule microarray, Flag-ID4 binding, fluorescence F/B; P47928; calls only;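 active means spot signal over background at p below 0.07 in all four prints; compounds were printed on slides so no solution concentration is given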;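 further: a binder raises fluorescence above local background on the spot; about 2 pmol printed per array spot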
Target sequence (P47928 whole entry, looked up): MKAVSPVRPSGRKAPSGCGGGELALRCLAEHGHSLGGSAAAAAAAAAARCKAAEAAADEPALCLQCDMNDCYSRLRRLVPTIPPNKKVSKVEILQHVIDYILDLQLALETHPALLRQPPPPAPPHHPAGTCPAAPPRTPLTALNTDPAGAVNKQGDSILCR
Calls only; i = inactive; + = active, no number.

SMILES	ID4 SMM
CN(C)c1ccc2c(c1)[C@@H]1C[C@H](CC(=O)N3CCc4ccccc4C3)O[C@H](CO)[C@@H]1O2	i
Cc1cc(SCC(=O)Nc2cccc(Br)c2)nc2c(C)cccc12	i
C[C@@H]1CN([C@@H](C)CO)S(=O)(=O)c2ccc(C3=CCCCC3)cc2O[C@@H]1CN(C)C(=O)c1ccc(F)cc1	i
C=CCOC(=O)[C@H]1[C@@H]2C(=O)O[C@@H](c3ccccc3)[C@@H](c3ccccc3)N2[C@@H](c2ccc(OCCOC(=O)[C@@H]3C[C@@H]4C(=O)N[C@@H](CC(C)C)C(=O)N4[C@@H]3c3ccc(O)cc3)cc2)[C@]12C(=O)Nc1ccc(I)cc12	i
CC(C)N(Cc1nc(-c2ccc(Cl)cc2)no1)S(=O)(=O)c1cccc([N+](=O)[O-])c1	i
C[C@@H](O)C#Cc1cnc2c(c1)C(=O)N([C@@H](C)CO)C[C@H](C)[C@H](CN(C)Cc1ccc(-c3ccccc3)cc1)O2	i
CCCc1cc(=O)oc2cc(OCc3cc(C(=O)O)oc3C)ccc12	i
COc1cccc(C#Cc2ccc3c(c2)O[C@H](CN(C)C)[C@H](C)CN([C@H](C)CO)S3(=O)=O)c1	i
O=C(Cn1nc(-c2cccc([N+](=O)[O-])c2)c2ccccc2c1=O)Nc1cccc(Cl)c1	i
CCOC(=O)c1ccccc1NC(=O)COc1ccccc1Br	i
O=C(CSc1nnnn1-c1ccccc1)Nc1ccc(Cl)c(C(=O)O)c1	+
O=C(CSc1nc(-c2ccccc2)cc(=O)[nH]1)Nc1cccc(Cl)c1Cl	i
CN(C)c1ccc2c(c1)[C@@H]1C[C@H](CC(=O)N3CCc4ccccc4C3)O[C@@H](CO)[C@@H]1O2	i
Cn1nc(CC(=O)Nc2ccc(OC(=O)c3ccccc3)cc2)c2ccccc2c1=O	i
CCOc1ccc(-c2nc(C#N)c(NCCCN(CC)CC)o2)cc1	i
C[C@@H](NC(=O)C[C@H]1CC[C@H](NC(=O)c2cccnc2)[C@H](CO)O1)c1ccccc1	i
Cc1ccc(OC(=O)N(C)C[C@H]2OCc3ccccc3-c3ccccc3C(=O)N([C@@H](C)CO)C[C@@H]2C)cc1	i
C[C@@H]1CN([C@@H](C)CO)S(=O)(=O)c2ccc(Br)cc2O[C@H]1CN(C)C(=O)CC1CC1	i
O=C(Cn1cnc2ccccc2c1=O)Nc1cc(Cl)c(Cl)cc1Cl	i
COC(=O)c1ccccc1NC(=O)CSc1nnc(-c2cccnc2)n1-c1ccccc1	i
CC(C(=O)NC1CCCCC1)N(c1ccc(Cl)cc1)S(C)(=O)=O (stereo not drawn)	i
CCC(=O)N(C)C[C@@H]1Oc2ncc(-c3ccc(C)cc3)cc2C(=O)N([C@@H](C)CO)C[C@H]1C	i
O=c1c2c(nc(NCCCO)n1Cc1ccccc1)-c1ccccc1CC21CCCC1	i
C[C@H]1CN([C@@H](C)CO)C(=O)c2cc(C#Cc3ccccc3)cnc2O[C@H]1CN(C)C(=O)c1ccccc1	i
O=C(NCC[C@H]1CC[C@@H](NC(=O)C2CCCC2)[C@@H](CO)O1)c1cc(Cl)cc(Cl)c1	i
CS(=O)(=O)N(CC(=O)Nc1ccc(F)c(F)c1)c1cccc([N+](=O)[O-])c1	i
COc1ccc(-n2c(SCCCN3C(=O)c4cccc5cccc(c45)C3=O)nnc2-c2ccncc2)cc1	i
CC(C)COC(=O)N(C)C[C@@H]1OCc2ccccc2-c2c(n(C)c3ccccc23)C(=O)N([C@H](C)CO)C[C@H]1C	i
O=C(COc1ccc(Cl)cc1Cl)Nc1ccc2oc(-c3ccncc3)nc2c1	i
COc1ccc(CNC(=O)C[C@@H]2C=C[C@H](NC(=O)c3ccc4c(c3)OCO4)[C@@H](CO)O2)cc1	i
CC(C(=O)O)N(c1ccc(Cl)cc1)S(C)(=O)=O (stereo not drawn)	i
CNC[C@H]1Oc2ncc(C3=CCCC3)cc2C(=O)N([C@H](C)CO)C[C@H]1C	+
COc1ccccc1N1CC(C(=O)Nc2cccc(C(=O)O)c2)CC1=O (stereo not drawn)	i
CN(C)S(=O)(=O)N(CC(=O)Nc1ccccc1F)c1ccccc1	i
COc1ccc(NC(=O)CNS(=O)(=O)c2ccc(C)cc2)cc1Cl	i
C[C@H]1CN([C@@H](C)CO)C(=O)c2cc(Br)cnc2O[C@@H]1CN(C)C(=O)C1CCOCC1	i
Cc1cccc(C)c1OCC(O)CN1CCN(CCO)CC1 (stereo not drawn)	i
Cc1nc(SCC(=O)c2cc3ccccc3oc2=O)c(C#N)c(C)c1C	i
CCCNC(=O)N[C@H]1CC[C@H](CC(=O)NC2CCC2)O[C@@H]1CO	i
COC(=O)c1ccccc1NC(=O)COc1ccc2ccccc2c1Br	i
COCCOC(=O)N1C(=O)[C@@]2(c3cc(C#Cc4ccc(OC)cc4)ccc31)[C@H](C(=O)N1CCN(c3ncccn3)CC1)[C@H]1C(=O)O[C@H](c3ccccc3)[C@H](c3ccccc3)N1[C@@H]2c1ccc(OCCO)cc1	i
C[C@@H]1CN([C@H](C)CO)C(=O)c2cc(-c3cccc(F)c3)cnc2O[C@@H]1CN(C)Cc1ccccc1	i
CC(=O)c1cccc(NC(=O)CSc2ncnc3sc(C)c(C)c23)c1	i
CC(C)c1ccccc1NC(=O)CN(C)S(=O)(=O)c1ccc(Br)cc1	i
CCCN(C)C[C@H]1OCc2cnnn2CCCC(=O)N([C@@H](C)CO)C[C@H]1C	i
CC(C)NC(=O)N[C@@H]1C=C[C@H](CC(=O)NCCCN(C)C)O[C@@H]1CO	i
O=C(Cn1cc(C(=O)c2cccs2)c2ccccc21)Nc1ccc(Br)cc1	i
COc1ccc(NC(=O)CN(c2ccc(Cl)cc2Cl)S(C)(=O)=O)cc1	i
O=C(N[C@H]1CC[C@@H](CCn2cc(-c3ccccc3)nn2)O[C@@H]1CO)c1ccccc1F	i
O=C(N[C@H]1C=C[C@H](CC(=O)N2CCc3ccccc3C2)O[C@H]1CO)C1CCC1	i
C[C@H](CO)N1C[C@H](C)[C@H](CN(C)Cc2ccc(F)cc2)Oc2ncc(-c3cccc(F)c3)cc2C1=O	i
COc1ccc(Cl)cc1-n1c(Cn2ncc3ccccc3c2=O)n[nH]c1=S	i
C[C@H]1CN([C@@H](C)CO)C(=O)c2cc(-c3ccncc3)cnc2O[C@H]1CN(C)Cc1ccc(F)cc1	i
CN(C)c1cccc(N2C(=S)SC3CS(=O)(=O)CC32)c1 (stereo not drawn)	i
Cc1cc(OCC(=O)NCc2cccnc2)c(C)cc1Br	i
Cc1ccc(S(=O)(=O)NCc2ccccc2)cc1	i
C[C@@H]1CN([C@H](C)CO)C(=O)c2ccccc2-c2ccccc2CO[C@@H]1CN(C)S(=O)(=O)c1cccs1	i
Cc1c(Cl)cccc1NC(=O)Cn1cc(C(=O)c2ccccc2)c2ccccc21	i
Cc1ccc(OCC(=O)Nc2cc(Cl)ccc2C(=O)O)c(C)c1	i
O=C(C[C@@H]1CC[C@H](NS(=O)(=O)c2ccccc2)[C@@H](CO)O1)NCc1ccncn1	i

Part of the list above, in CSV form.
structure,ID4 SMM
COc1ccc(NC(=O)CN(c2ccc(Cl)cc2Cl)S(C)(=O)=O)cc1,i
O=C(N[C@H]1CC[C@@H](CCn2cc(-c3ccccc3)nn2)O[C@@H]1CO)c1ccccc1F,i
O=C(N[C@H]1C=C[C@H](CC(=O)N2CCc3ccccc3C2)O[C@H]1CO)C1CCC1,i
C[C@H](CO)N1C[C@H](C)[C@H](CN(C)Cc2ccc(F)cc2)Oc2ncc(-c3cccc(F)c3)cc2C1=O,i
COc1ccc(Cl)cc1-n1c(Cn2ncc3ccccc3c2=O)n[nH]c1=S,i
C[C@H]1CN([C@@H](C)CO)C(=O)c2cc(-c3ccncc3)cnc2O[C@H]1CN(C)Cc1ccc(F)cc1,i
CN(C)c1cccc(N2C(=S)SC3CS(=O)(=O)CC32)c1 (stereo not drawn),i
Cc1cc(OCC(=O)NCc2cccnc2)c(C)cc1Br,i
Cc1ccc(S(=O)(=O)NCc2ccccc2)cc1,i
C[C@@H]1CN([C@H](C)CO)C(=O)c2ccccc2-c2ccccc2CO[C@@H]1CN(C)S(=O)(=O)c1cccs1,i
Cc1c(Cl)cccc1NC(=O)Cn1cc(C(=O)c2ccccc2)c2ccccc21,i
Cc1ccc(OCC(=O)Nc2cc(Cl)ccc2C(=O)O)c(C)c1,i
O=C(C[C@@H]1CC[C@H](NS(=O)(=O)c2ccccc2)[C@@H](CO)O1)NCc1ccncn1,i

Following part
SMILES	ID4 SMM
COc1ccc(C#Cc2ccc3c(c2)[C@]2(C(=O)N3)[C@H](C(=O)Nc3nc4ccccc4s3)[C@H]3C(=O)O[C@H](c4ccccc4)[C@H](c4ccccc4)N3[C@@H]2c2ccccc2OCCO)cc1	i
Cc1ccc(NC(=O)COc2ccc(Cl)cc2C)c([N+](=O)[O-])c1	i
Cc1ccc(C)c(OCC(=O)Nc2cccc(C(=O)O)c2C)c1	i
O=C1C(Oc2ccccc2)C(c2ccc3c(c2)OCO3)N1C1CCCC1 (stereo not drawn)	i
CC(=O)N[C@@H]1CC[C@H](CCNC(=O)C2CCC2)O[C@@H]1CO	i
Cc1cc(C)cc(NC(=O)CN(c2cc([N+](=O)[O-])ccc2C)S(C)(=O)=O)c1	i
Cc1ccnc(NC(c2cc(C)ccc2C)c2ccc3ccc(C)nc3c2O)c1 (stereo not drawn)	i
C[C@@H]1CN([C@@H](C)CO)S(=O)(=O)c2ccc(C#CCN(C)C)cc2O[C@H]1CN(C)CC1CCCC1	i
CN1CCN(C(=O)C[C@@H]2CC[C@@H](NC(=O)Nc3ccccc3F)[C@H](CO)O2)CC1	i
Cc1ccccc1-c1cnc2c(c1)C(=O)N([C@@H](C)CO)C[C@@H](C)[C@H](CN(C)C(=O)c1ccccc1)O2	i
Cc1ccc(NC(=O)CSc2nnc(-c3cccs3)n2C)cc1Cl	i
C[C@@H]1CN([C@H](C)CO)C(=O)c2cc(C#CCN(C)C)cnc2O[C@H]1CN(C)Cc1ccccc1F	i
CCCNC(=O)C[C@@H]1C[C@H]2c3cc(NC(=O)Cc4ccncc4)ccc3O[C@H]2[C@H](CO)O1	i
C[C@@H]1CN([C@@H](C)CO)C(=O)c2cc(-c3ccc(F)cc3)cnc2O[C@H]1CN(C)Cc1ccc(F)cc1	i
C[C@H]1CN([C@@H](C)CO)C(=O)c2cc(C#CCN(C)C)cnc2O[C@H]1CN(C)C(=O)NC1CCCCC1	i
Cc1nc2ccccc2n1CC(O)COc1ccccc1Cl (stereo not drawn)	i
COc1ccc([Si](C)(C)[C@H]2[C@H](CCn3cc([C@H](O)c4ccccc4)nn3)O[C@@]3(C(=O)N(Cc4cccc(N5CCOC5=O)c4)c4ccccc43)[C@@H]2C)cc1	i
Cc1ccc(NC(=O)CSc2nnc(-c3cccc4ccccc34)n2-c2ccccc2)c(C)c1	i
Cc1nn(-c2ccccc2)cc1C1C=C(c2ccc(Cl)cc2)N=C2SCC(=O)N21 (stereo not drawn)	i
CC(C)c1cn(CC[C@H]2CC[C@H](NC(=O)c3cccc(F)c3)[C@H](CO)O2)nn1	i
CCC(=O)N(C)C[C@H]1Oc2ncc(/C=C/c3ccccc3)cc2C(=O)N([C@H](C)CO)C[C@H]1C	i
C[C@H](CO)N1C[C@H](C)[C@H](CN(C)Cc2ccc(F)cc2)Oc2ncc(Br)cc2C1=O	i
C[C@@H]1CN([C@H](C)CO)C(=O)c2cc(C3=CCCCC3)cnc2O[C@@H]1CN(C)C(=O)c1ccc(F)cc1	i
COC(=O)c1ccccc1NC(=O)C1CCCN(S(=O)(=O)c2ccc(Br)cc2)C1 (stereo not drawn)	i
COc1cc(C(=O)NC(=S)Nc2cccc(-c3nc4ncccc4o3)c2C)cc(OC)c1OC	i
CCn1c(SCC(=O)Nc2cc(Cl)ccc2Cl)nnc1-c1ccccc1OC	i
CCCN(C)C[C@H]1Oc2ncc(-c3ccccc3)cc2C(=O)N([C@H](C)CO)C[C@@H]1C	i
C[C@@H]1CN([C@@H](C)CO)C(=O)c2cc(C#Cc3ccccc3F)cnc2O[C@@H]1CN(C)C(=O)C1CC1	i
O=C(N[C@H]1CC[C@@H](CC(=O)N2CCCCC2)O[C@@H]1CO)c1cccc(F)c1	i
COc1ccc(Cl)cc1NC(=S)NCc1cc(C)n(C)n1	i
C[C@H](CO)N1C[C@H](C)[C@@H](CN(C)Cc2ccccc2C(=O)O)Oc2ncc(C3=CCCCC3)cc2C1=O	+
C[C@H](CO)N1C[C@H](C)[C@H](CN(C)CC2CC2)OCc2cn(nn2)CCCC1=O	i
COCC#Cc1cnc2c(c1)C(=O)N([C@@H](C)CO)C[C@@H](C)[C@@H](CN(C)C(=O)c1cccc(F)c1)O2	i
CCC(=O)N[C@@H]1C=C[C@H](CC(=O)NCc2cc(F)cc(F)c2)O[C@H]1CO	i
COC(=O)C[C@@H]1C[C@H]2c3cc(NC(=O)c4ccc5c(c4)OCO5)ccc3O[C@H]2[C@H](CO)O1	i
O=C(C[C@@H]1C=C[C@@H](NC(=O)Cc2ccccn2)[C@H](CO)O1)NCCCN1CCOCC1	i
C[C@H]1CN([C@@H](C)CO)S(=O)(=O)c2ccc(-c3cccnc3)cc2O[C@H]1CN(C)C(=O)NC1CCCCC1	i
Cc1cccc(NC(=O)C(Cc2ccc([N+](=O)[O-])cc2)N2C(=O)c3ccccc3C2=O)c1 (stereo not drawn)	i
CCC(=NCc1ccc(C#N)cc1)c1ccccc1O	i
C[C@@H]1CN([C@@H](C)CO)C(=O)CCCn2nncc2CO[C@H]1CN(C)Cc1cccc(C(F)(F)F)c1	i
COc1cc2c(cc1NC(=O)C(C)Oc1ccc(Cl)cc1Cl)oc1ccccc12 (stereo not drawn)	i
O=C(CCn1cnc2ccccc2c1=O)Nc1ccc(S(=O)(=O)N2CCCCC2)cc1	i

Bioassay records deposited in PubChem BioAssay by Broad Institute.

Some of the compounds tested; count on the stated rates, not on these rows.
